Mtb H37Rv = Mycobacterium tuberculosis H37Rv growth inhibition, cell based, confirmatory dose response (AID 1949) | most inactive calls were filed without a number and no value below 0 was filed | inhibition, % at 10 µg/mL, or IC50 in µg/mL where a hit was titrated | 100,000 tested, 1.6% active;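 active = confirmed in a dose series; inconclusive = about 50% or more but not retested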;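 note: bacteria grown 7 days with compound before Alamar blue readout; 0% = untreated bacteria and 100% = reference antibiotic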
Starred values were filed as active, the others as inactive; i = inactive; ? = inconclusive.

SMILES | Mtb H37Rv
Cc1ccc(Cn2cnc3sc4c(c3c2=O)CCC(C)C4)cc1 (stereo not drawn) | i
Cc1cccc(NC(=S)NCCc2c[nH]c3ccccc23)c1C | i
COc1ccc(Oc2nc(C)cc(C)n2)cc1 | i
CS(=O)(=O)N(CC(=O)Nc1ccccc1Cl)C1CCCCC1 | i
CC(NS(=O)(=O)c1ccc(Br)cc1)C(=O)NCCc1ccccc1 (stereo not drawn) | 2%
Cc1cc(C)c2c(CC(=O)NNC(=O)COc3ccccc3)coc2c1 | 1%
CC(Oc1ccc(Br)cc1)C(=O)NCCCc1ccccc1 (stereo not drawn) | i
COc1ccc(NC(=O)c2cc(OC)c(OC)c(OC)c2Br)cc1Cl | 6%
O=C(CCCOc1ccccc1)N1CCc2ccccc2C1 | 2%
Cc1nn(C(C)(C)C)c(OC(=O)c2ccc(F)cc2)c1S(=O)(=O)c1ccccc1 | i
COC(=O)CCC(=O)C1N=C(c2ccccc2)CC1=O (stereo not drawn) | 0%
CCN1C(=O)C(Cc2c[nH]c3ccccc23)NC1=S (stereo not drawn) | i
CCOC(=O)c1cccc(NC(=O)/C(=C\c2ccc3c(c2)OCO3)NC(=O)c2ccccc2Cl)c1 | i
O=C(CNC(=O)c1ccc(Cl)cc1)OCc1ccc(Cl)cc1 | i
Cc1cc(Br)cc(C)c1OCC(=O)Nc1ccc(C#N)cc1 | 4%
O=C(Nc1sc2c(c1C(=O)NCCc1ccccc1)CCCC2)c1ccc(F)cc1 | i
Fc1ccc(-c2nc(-c3cccs3)c(-c3cccs3)[nH]2)cc1 | i
CN1CCC(O)(c2ccccc2)C(C(O)c2ccccc2)C1 (stereo not drawn) | i
COc1cccc(OCC(=O)NCc2ccccn2)c1 | i
COc1ccc(OCC(=O)Nc2sc3c(c2C(=O)NCC2CCCO2)CCC3)cc1 (stereo not drawn) | i
CCC(=O)Nc1ccc(Cl)c(NC(=O)c2ccccc2C)c1 | 3%
Cc1cccc(N2CCN(c3ncnc4sc5c(c34)CCCC5)CC2)n1 | 2.3µg/mL*
C=CCN1C(=O)C2C3C=CC(C2C1=O)C1C(=O)N(CC=C)C(=O)C31 (stereo not drawn) | i
CC(C)C(NC(=O)C12CC3CC(CC(C3)C1)C2)C(=O)NC1=NCCS1 (stereo not drawn) | i
COC(=O)c1cc(NC(=S)NC(C)(C)C)cc(C(=O)OC)c1 | 0%
CCOc1ccc(C2NC(=O)NC(C)=C2C(=O)Nc2ccccc2F)cc1 (stereo not drawn) | i
O=S(=O)(Cc1ccc(Cl)cc1)Nc1ccccc1 | i
CCc1cc(C)cc(OCC(=O)NC2CC2)c1 | i
CCOC(=O)c1c(NC(=O)C2C3C=CC(C3)C2C(=O)O)sc2c1CCCCC2 (stereo not drawn) | i
CCOc1cc(C(=S)N2CCCCC2)ccc1OC(=O)c1cc(Cl)ccc1Cl | 12%
Cc1ccc(-n2nnnc2SCc2ccc(Br)cc2)cc1C | i
O=C(Nc1cccc(Cl)c1)C1CCN(S(=O)(=O)c2ccc(Cl)cc2)CC1 | i
CCc1ccccc1N(CC(=O)Nc1ccccc1-c1ccccc1)S(=O)(=O)c1ccccc1 | 7%
COc1cc(=O)[nH]c(SCC(=O)Nc2ccc(Cl)cc2)n1 | i
Cn1c(SCC(=O)NCc2ccccc2)nnc1-c1cccs1 | i
O=C(O)c1ccc(COCC(F)(F)C(F)F)cc1 | i
Cc1cccc(NC(=O)c2cc(F)c(F)cc2Cl)n1 | i
Cc1ccc(-n2c(C)nnc2SCC(=O)Nc2ccc(Cl)c(C(F)(F)F)c2)cc1 | i
Cc1ccc(CC(=O)N2CCN(Cc3ccccc3)CC2)cc1 | i
CCOC(=O)COc1ccc(/C=C2\C(=O)NC(=O)N(c3cc(C)cc(C)c3)C2=O)cc1 | i
COc1cc(C23CC4CC(CC(C4)C2)C3)ccc1C(=O)NC1=NCCS1 | ?
O=C(Nc1ccccc1-c1ccccc1)C(Cl)(Cl)Cl | 2.4µg/mL*
Cc1ccc(N2CCN(C(=O)c3cc4cc([N+](=O)[O-])ccc4oc3=O)CC2)c(C)c1 | 6%
Cn1c(CNC(=O)c2ccccc2Cl)nnc1SCC(=O)Nc1nc2ccccc2s1 | i
CCCc1cc(=O)n2[nH]c(-c3cccc(Br)c3)cc2n1 | i
O=C(Nc1cccnc1)Nc1ccc(Br)cc1Cl | 5%
CCc1nnc(NS(=O)(=O)c2ccc(NC(=O)c3cc4ccccc4cc3OC)cc2)s1 | 5%
Cc1ccc(C)c(-c2nc3ccccc3c(C(=O)NC3CCN(C)CC3)c2C)c1 | i
COc1ccc(S(=O)(=O)Nc2ccc3oc(C)c(C(=O)OC(C)C)c3c2)cc1 | 4%
COC(=O)c1ccccc1NC(=O)CSc1nc(-c2ccc(F)cc2)cs1 | i
Cc1ccc2nc(NC(=O)NC3CCCCC3)sc2c1 | 13%
COc1ccc(C(=O)O)cc1NC(=S)NC(=O)c1ccc(F)cc1 | i
Cc1ccc(OCCCNCCO)c(Br)c1 | i
COc1cc(OC)cc(C(=O)NC(=S)Nc2ccc(S(N)(=O)=O)cc2)c1 | i
Brc1ccc(-c2nc(-c3cccnc3)no2)cc1 | 0%
COC(=O)C1=C(C)N(CCc2ccccc2)C(=O)NC1c1cc(Br)c(O)c(OC)c1 (stereo not drawn) | 2%
CCS(=O)(=O)NCc1ccc(CNS(=O)(=O)CC)cc1 | i
CN(C)S(=O)(=O)c1ccc(-c2csc(NC(=O)c3sc4ccccc4c3Cl)n2)cc1 | i
COc1cccc(OCCCOc2ccccc2C(C)=O)c1 | 4%
COc1ccc(NC(=S)Nc2ccccc2Cc2ccccc2)cc1 | i
Continued.
SMILES | Mtb H37Rv
O=C(Oc1ccc2c3c(c(=O)oc2c1)CCCC3)c1ccc(Cl)cc1Cl | i
Cc1c(C(=O)NC2CCCCC2)oc2c1C(=O)CC(C)(C)C2 | i
CCc1ccc(N2CCN(C(=O)N3CCOCC3)CC2)cc1 | i
O=S(=O)(NCCc1ccccc1)c1ccc(NC(=S)Nc2ccccc2)cc1 | 0%
O=C(NC(=S)Nc1ccccc1C(=O)O)c1ccc(Cl)cc1Cl | 6%
CC(=O)CSc1nc2ccccc2o1 | i
CCc1c(C)sc(NC(=O)Cc2ccc(OC)c(OC)c2)c1C(=O)OC(C)C | 2%
COc1ccc(S(=O)(=O)N(CC(=O)N2CCCCC2)c2cc(Cl)ccc2OC)cc1OC | i
CC(=O)c1sc2nc(-c3ccc(Cl)cc3Cl)cc(C(F)(F)F)c2c1N | i
Nc1nc(-c2ccccc2)nn1C(=O)Cc1ccccc1 | 1%
Cc1ccc(C(=O)Nc2ccc(Cl)cc2Cl)cc1Br | i
COc1ccc(N2CCN(C(=S)Nc3cc(C)cc(C)c3)CC2)cc1 | 2%
O=C(CCC1CCCCC1)Nc1cccnc1 | i
Cn1c(=O)c2c(nc(OCc3ccco3)n2Cc2ccc(Br)cc2)n(C)c1=O | i
CC(=O)c1ccc(NC(=O)c2nc3nc(C)cc(C(F)F)n3n2)cc1 | i
O=C(CC12CC3CC(CC(C3)C1)C2)Nc1ccc(-c2ccc(CO)o2)cc1 | 2%
COc1ccc(Cc2nnc3c4cnn(-c5ccccc5)c4ncn23)cc1OC | i
COc1ccc(N2C(=O)CC(n3c(CO)nc4ccccc43)C2=O)cc1 (stereo not drawn) | i
CC(C)OC(=O)c1cc(NC(=S)NC(=O)c2ccc3ccccc3c2)ccc1Cl | i
COC(=O)c1ccccc1NC(=O)CSC1=C(C#N)C(c2ccc(Cl)cc2)C(C(C)=O)=C(C)N1 (stereo not drawn) | 18%
O=C(c1ccc(F)cc1)N1CCN(Cc2c[nH]c3ccccc23)CC1 | i
O=S(=O)(NCc1ccco1)c1ccc(Cl)cc1 | i
N#C/C(=C/c1cn(-c2ccccc2)nc1-c1ccncc1)c1nc2ccccc2s1 | i
COC(=O)Cc1ccc(NC(=S)NCc2cccc(OC)c2)cc1 | i

For convenience, some entries already given:
SMILES | Mtb H37Rv
CC(=O)c1sc2nc(-c3ccc(Cl)cc3Cl)cc(C(F)(F)F)c2c1N | i
Nc1nc(-c2ccccc2)nn1C(=O)Cc1ccccc1 | 1%
Cc1ccc(C(=O)Nc2ccc(Cl)cc2Cl)cc1Br | i
COc1ccc(N2CCN(C(=S)Nc3cc(C)cc(C)c3)CC2)cc1 | 2%
O=C(CCC1CCCCC1)Nc1cccnc1 | i
Cn1c(=O)c2c(nc(OCc3ccco3)n2Cc2ccc(Br)cc2)n(C)c1=O | i
CC(=O)c1ccc(NC(=O)c2nc3nc(C)cc(C(F)F)n3n2)cc1 | i
O=C(CC12CC3CC(CC(C3)C1)C2)Nc1ccc(-c2ccc(CO)o2)cc1 | 2%
COc1ccc(Cc2nnc3c4cnn(-c5ccccc5)c4ncn23)cc1OC | i
COc1ccc(N2C(=O)CC(n3c(CO)nc4ccccc43)C2=O)cc1 (stereo not drawn) | i
CC(C)OC(=O)c1cc(NC(=S)NC(=O)c2ccc3ccccc3c2)ccc1Cl | i
COC(=O)c1ccccc1NC(=O)CSC1=C(C#N)C(c2ccc(Cl)cc2)C(C(C)=O)=C(C)N1 (stereo not drawn) | 18%
O=C(c1ccc(F)cc1)N1CCN(Cc2c[nH]c3ccccc23)CC1 | i
O=S(=O)(NCc1ccco1)c1ccc(Cl)cc1 | i
N#C/C(=C/c1cn(-c2ccccc2)nc1-c1ccncc1)c1nc2ccccc2s1 | i
COC(=O)Cc1ccc(NC(=S)NCc2cccc(OC)c2)cc1 | i

More results.
SMILES | Mtb H37Rv
COc1ccc(Nc2oc(-c3cccc(C)c3)nc2C#N)cc1 | 1%
CC(C)Cc1nnc(NC(=O)COc2ccc(Cl)cc2)s1 | i
CC1(C)CC2CC(C)(CN2C(=O)c2ccc(Cl)cc2Cl)C1 (stereo not drawn) | i
CCn1cc(CNC(=S)Nc2cccc3ccccc23)cn1 | i
CC(C)c1ccc(OC(=O)c2ccccc2[N+](=O)[O-])c(Br)c1 | 0%
CCOc1ccc(N2C=C(C(=O)OC)C(c3ccccc3F)C(C(=O)OC)=C2)cc1 | i
N#C/C(=C\c1cccn1-c1ccc(C(=O)O)cc1)c1ccccc1 | i
COCc1ccccc1Cn1cnc2ccccc21 | i
CCn1c(CSCc2ccc(Cl)c(Cl)c2)nnc1SCC(=O)Nc1cc([N+](=O)[O-])ccc1C | 8%
CCSc1ccccc1C(=O)N1CCCCCC1 | i
Clc1ccc(OCCOCCN2CCc3ccccc3C2)c(Cl)c1 | i
O=c1c2c(-c3ccc(Br)cc3)csc2ncn1Cc1ccc(Cl)cc1 | 30%
COc1ccc(C2(CNC(=S)Nc3ccccc3)CCOCC2)cc1 | i
CC1(C)Cc2nc3sc(C(=O)O)c(N)c3cc2CS1 | i
CC(Oc1ccc2c(=O)c(-c3ccc(Cl)cc3)coc2c1)C(=O)O (stereo not drawn) | i
Cc1ccc(S(=O)(=O)NCC(=O)Nc2cccc(Cl)c2)cc1 | i
CCc1nnc(NC(=O)C(CC)Oc2ccccc2)s1 (stereo not drawn) | 1%
Cc1c(C#N)c2ccccc2n1CC(=O)N1CCOCC1 | i
COc1ccc(C(=O)CC(c2ccccc2)S(=O)(=O)c2ccc(C)cc2)cc1 (stereo not drawn) | 4%
Cn1c(SCC(=O)NCc2ccco2)nnc1-c1cccc(Cl)c1 | i
Cc1ccc(SCCC(=O)NCc2ccco2)cc1 | i
O=S(=O)(Nc1ccc(C(F)(F)F)cc1)c1ccc(F)cc1 | i
O=C(NCc1cccnc1)c1ccc(Cl)c(S(=O)(=O)N2CCCCC2)c1 | i
Cc1cc(Br)ccc1OCC(=O)Nc1cc(C(F)(F)F)ccc1Cl | 0%
COc1cccc2cc(C(=O)Nc3ccccc3Cl)c(=O)oc12 | i
COc1cc2nc(-c3cccs3)oc(=O)c2cc1OC | ?
CCCC(C)c1nnc(NC(=O)c2c(-c3ccccc3Cl)noc2C)s1 (stereo not drawn) | i
CN1CCN(C(=O)c2ccccc2NC(=O)Nc2ccc(Cl)cc2)CC1 | 2%
Cc1ccc(/C=C/[N+](=O)[O-])cc1Br | 239µg/mL*
CC(C)n1[nH]c(=O)c2c1NC(=O)CSC2c1cccc([N+](=O)[O-])c1 (stereo not drawn) | 0%
COc1ccc(NC(=O)CN(Cc2ccc(F)cc2)S(=O)(=O)c2ccc(Cl)cc2)cc1OC | 4%
O=C(Nc1ccc2c(c1)OCCO2)c1cc2ccccc2oc1=O | 9%
CN(C)C(=O)COc1ccc(S(=O)(=O)c2ccc(OCC(=O)N(C)C)cc2)cc1 | 2%
Nc1nnc(SCC(=O)N2CCc3ccccc3C2)s1 | i
CCc1cc(=O)oc2cc(OCC(=O)Nc3cc(C)cc(C)c3)ccc12 | i
S=C(NCc1ccc2c(c1)OCO2)Nc1ccccc1 | 1%
S=C(Nc1ccc(Br)cc1Cl)NN1CCOCC1 | i
CCC(=O)Nc1ccc2nc(SCC(=O)N3CCCCC3)sc2c1 | 12%
CC(C)c1ccc(OCC(=O)Nc2ccc(S(=O)(=O)N(C)C)cc2)cc1 | i
CCOc1ccc(S(=O)(=O)N2CCN(C)CC2)c(C)c1C | i
COc1ccc(OCC(=O)Nc2ccc3oc(-c4ccc(C)cc4C)nc3c2)cc1 | i
CCc1cccc(CC)c1NC(=O)CCSCCC(=O)Nc1c(CC)cccc1CC | i
Cc1ccccc1CN1CCN(Cc2ccc(Br)cc2)CC1 | 2%
N#Cc1c(-c2ccccc2)nc(=S)n(-c2ccccc2)c1N | i
COc1ccc(NC(=O)c2ccc(-c3ccc(Br)cc3)o2)c(OC)c1 | ?
Cc1ccc(NC(=O)COc2ccc3c(c2)CCCC3)cc1[N+](=O)[O-] | i
CCC(Oc1ccccc1)C(=O)Nc1ccccc1C(N)=O (stereo not drawn) | 10%
COC(=O)Nc1ccc(Oc2ccccc2)cc1 | i
O=c1[nH]cnc2nc(N3CCOCC3)[nH]c12 | i
O=C(O)CCC(=O)N1N=C(c2ccc(Br)cc2)CC1/C=C/c1ccccc1 (stereo not drawn) | 2%
O=C(Nc1nc(-c2ccccc2)c(-c2ccccc2)o1)c1ccc(F)cc1 | <0.1µg/mL*
COc1ccccc1-c1noc(CCC(=O)Nc2ccccc2C)n1 | i
COC(=O)c1ccc(COc2cc(C)cc3oc(=O)cc(-c4ccccc4)c23)cc1 | 6%
CN1CCC(OC(=O)c2cccc(F)c2)CC1 | i

Assay outcomes (PubChem BioAssay)

The list is partial, so the mix of outcomes need not match the whole.
